Assay outcomes deposited in PubChem BioAssay by National Center for Advancing Translational Sciences (NCATS).
CtBP-E1A blk – qHTS Assay for Inhibitors of the CtBP/E1A Interaction | CtBP / adenovirus E1A interaction (AlphaScreen) | AlphaScreen GST-E1A/His-CtBP binding, 1536-well; active compounds read low; control for the full effect not named in the record | activity change, % (concentration not given with the values) | hit rate 0.49% among 340,000 | AID 651724, 2012; in the data active means activity change below about -65%; inconclusive means about -30% to -65%; inactive means above about -30%; also: % is scaled to controls: 0 for no effect and ±100 for the full control effect
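Homogeneous bead-based format: GST-tagged E1A captured on glutathione donor beads, His-tagged CtBP on nickel acceptor beads; compounds precede bead addition by 2 h at 37 °C.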
TRPML1 ag – qHTS for Agonists of the Human Mucolipin Transient Receptor Potential 1 (TRPML1); Mucolipin-1 (Homo sapiens), Q9GZU1; TRPML1-expressing cells, Ca2+ dye fluorescence, FDSS; host cell line not named in the record; reference of the full effect not given here; activation, % (test concentration not listed); hit rate 0.12% among 410,000; in the data active = activation above about 50%; inconclusive = about 30% to 50%; inactive = below about 30%; also: 0% is about no effect; the text of the record puts the active cut at 80%
Target sequence (Q9GZU1 whole entry, looked up): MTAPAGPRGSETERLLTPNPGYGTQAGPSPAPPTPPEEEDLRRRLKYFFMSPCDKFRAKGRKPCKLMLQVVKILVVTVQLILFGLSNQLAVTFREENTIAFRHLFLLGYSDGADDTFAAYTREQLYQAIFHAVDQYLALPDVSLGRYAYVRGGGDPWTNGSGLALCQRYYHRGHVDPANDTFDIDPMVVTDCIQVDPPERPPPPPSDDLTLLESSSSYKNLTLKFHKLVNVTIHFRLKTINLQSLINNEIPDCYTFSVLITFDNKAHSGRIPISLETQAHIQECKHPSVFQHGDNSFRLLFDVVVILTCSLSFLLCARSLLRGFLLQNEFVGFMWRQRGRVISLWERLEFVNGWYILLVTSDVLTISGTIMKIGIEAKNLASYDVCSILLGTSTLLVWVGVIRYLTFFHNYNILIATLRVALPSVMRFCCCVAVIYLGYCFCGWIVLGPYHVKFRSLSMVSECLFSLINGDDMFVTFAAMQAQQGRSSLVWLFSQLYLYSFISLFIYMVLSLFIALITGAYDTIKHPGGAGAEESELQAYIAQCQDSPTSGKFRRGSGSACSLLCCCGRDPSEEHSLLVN
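Tetracycline-induced TRPML1-DL cells are seeded and incubated overnight before loading with a no-wash Ca2+ dye and quencher. Agonist activity is taken from the 110 s fluorescence read following compound pin-transfer on an FDSS, before EC80 54-4 challenge.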
PINK1 modulator – A Quantitative High throughput Screen to Identify Chemical Modulators of PINK1 Expression; Potency, µM (series often up to 76.6 µM), for inactives: at the highest dose activation (PINK1 increase), actives largely listed as activators; PINK1 immunofluorescence, high-content cytometry, 24 h; hit rate 0.2% among 410,000; active = well fitted activation curve with a large enough effect; inconclusive = small, poorly fitted or top-dose-only effect; inactive = flat fitted curve, though single readings scatter; cell line not stated here;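 also: potency is read from the fitted curve at half-maximal effect; % of control where 0% means no effect; nearly all actives have a fitted effect of over 65% in size; a mitochondrial uncoupler was the plate control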
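Decision-based qHTS: stable cells, 24 h exposure to five compound concentrations, CCCP as control. Fixed cells stained for PINK1 plus nuclear, mitochondrial and cell markers, cytometer read.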
Six1-Eya2 inh – qHTS Assay for Inhibitors of the Six1/Eya2 Interaction | Homeobox protein SIX1 (Homo sapiens) + Protein phosphatase EYA2 (Homo sapiens), … | AlphaScreen GST-Six1/His-Eya2 binding, biochemical; active compounds read low; control for the full effect not named in the record | activity change, % (concentration not given with the values) | hit rate 0.56% among 360,000 | AID 651725, 2012; in the data active = activity change below about -65%; inconclusive = about -30% to -65%; inactive = above about -30%; also: % is scaled to controls: 0 for no effect and ±100 for the full control effect
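Homogeneous AlphaScreen proximity assay pairing GST-Six1 with His-tagged Eya2 (added as 5X mix: 250 nM and 500 nM) in 50 mM Tris pH 8.0, 300 mM NaCl, 1 mM TCEP. Glutathione donor and nickel acceptor beads; 1 h, 37 °C, dark.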
D2 PAM – Beta-Arrestin HTS for Positive Allosteric Modulators of the Human D2 Dopamine Receptor: Potentiators; potentiation, % (concentration not given with the values); hit rate 0.23% among 360,000; AID 624464, 2012; DiscoveRx D2 beta-arrestin cells, luminescence, 90 min; 100% = 57 uM dopamine signal; active = potentiation of 50% or more; inconclusive = 30% to 50%; inactive = 30% or less;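 also: compound concentration not given in the record; tested on top of an EC20 dose of dopamine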
Target sequence (P14416 whole entry, looked up): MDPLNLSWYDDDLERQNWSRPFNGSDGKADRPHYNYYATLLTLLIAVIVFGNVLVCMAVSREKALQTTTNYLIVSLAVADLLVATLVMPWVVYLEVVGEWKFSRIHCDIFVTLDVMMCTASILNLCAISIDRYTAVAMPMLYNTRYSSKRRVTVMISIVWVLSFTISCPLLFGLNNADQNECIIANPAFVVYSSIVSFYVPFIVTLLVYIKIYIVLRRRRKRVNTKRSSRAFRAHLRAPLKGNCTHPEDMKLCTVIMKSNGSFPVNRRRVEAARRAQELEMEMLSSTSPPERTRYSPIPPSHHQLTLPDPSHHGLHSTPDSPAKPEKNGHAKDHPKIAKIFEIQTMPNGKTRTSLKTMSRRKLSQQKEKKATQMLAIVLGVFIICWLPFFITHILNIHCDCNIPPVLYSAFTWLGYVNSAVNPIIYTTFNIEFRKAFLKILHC
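PathHunter beta-arrestin assay in DiscoveRx D2 cells. Compounds were added with an EC20 of dopamine (50 nM final) for 90 min at 37 deg C. Luminescence was read 1 h after detection reagent, with 57 uM dopamine as the EC100 control.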
D2 ag – Beta-Arrestin HTS for Positive Allosteric Modulators of the Human D2 Dopamine Receptor: Agonists | D(2) dopamine receptor (Homo sapiens), P14416 | DiscoveRx PathHunter D2 beta-arrestin, luminescence, 90 min; 100% = 57 uM dopamine signal | activation, % (no concentration beside the values) | hit rate 0.084% among 360,000; in the data active = activation above about 40%; inconclusive = about 15% to 40%; inactive = below about 15%; also: compound concentration not given in the record; the text of the record calls up to 30% inactive
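DiscoveRx PathHunter D2 beta-arrestin cells (2,100/well) attached overnight, then compound-stimulated 90 min at 37 C in HBSS/10 mM HEPES/0.1% Tween-20 buffer; beta-galactosidase complementation read by luminescence after 1 h at ambient temperature. Dopamine 57 uM final (EC100) as control.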
An asterisk follows results filed as active; ? = inconclusive; · = not tested or not shown; & = joins results of further samples; [ ] = another dose, or the depositor's remark. An unsorted share of the library (roughly 1.3% active in at least one column).

SMILES | CtBP-E1A blk | TRPML1 ag | PINK1 modulator | Six1-Eya2 inh | D2 PAM | D2 ag
O=S(=O)(c1cccc(-c2nnco2)c1)N1CCCC1 | 2 | -0.1 | 0.6% | 1 | -20 | -3.0
COc1ccc(C2CC(c3cccc(OC)c3)=NN2c2ccc(S(N)(=O)=O)cc2)cc1 (configuration not stated) | 40 | -0.1 | 0.8% | 35 | -2 | 3.0
CCCc1nnc(NC(=O)CCC(=O)N2CCN(S(=O)(=O)c3ccc(C)cc3)CC2)s1 | 3 | -0.2 | 5.4% | -1 | -1 | -1.5
COc1ccc(NC(=O)CCNS(=O)(=O)c2ccc3c(c2)c(=O)n(C)c(=O)n3C)c(OC)c1 | -1 | 1.3 | 0.3% | -13 | -5 | -4.3
CC1(CC(=O)NNC(=O)Nc2ccccc2)OCCCO1 | 4 | -0.6 | -1.3% | 2 | -6 | -0.5
CN(C)S(=O)(=O)c1ccc(Cl)c(NC(=O)COC(=O)CCC2CCCCC2)c1 | 14 | 1.2 | -1.0% | 12 | -24 | -4.1
CC(=O)Nc1ccc(/C=N/NC(=O)CCN2CCN(c3ccccc3)CC2)cc1 | -12 | -0.4 | -0.4% | -17 | 3 | 9.3
O=C(NC(c1ccc2ccccc2n1)c1cccs1)C1CCN(Cc2cccc(C(F)(F)F)c2)CC1 (configuration not stated) | -15 | 3.0 | 6.1% | -20 | -17 | -4.3
O=C(CSc1ccc(Cl)cc1)NCc1ccncc1 | 2 | 0.5 | 0.5% | 5 | -9 | 0.5
O=C(Nc1ccc(C(O)c2ccccc2)cc1)[C@@H]1O[C@H](CO)[C@H](O)[C@H](O)[C@H]1O (some centres not stated) | 31 | -0.9 | 1.4% | 17 | 1 | -5.5
CCN(CC)S(=O)(=O)c1ccc2c3c(cccc13)C(=O)S2 | 12 | 0.1 | -3.0%[38.3 µM] | -8 | -14 | 0.0
O=C(NCc1cccnc1)c1cccc(S(=O)(=O)Nc2ccc(F)cc2)c1 | 6 | 0.2 | 1.8% | 2 | -8 | -0.1
CCn1nnc2c(=O)oc3ccccc3c21 | 0 | 1.1 | 2.9% | -1 | 2 | 5.9
CCOc1ccccc1N1CCN(C(=O)c2ccccc2OCc2c(C)noc2C)CC1 | · | -2.1 | 0.1% | -5 | -21 | -1.6
O=C(COC(=O)Cc1ccc(S(=O)(=O)N2CCOCC2)s1)NCCc1ccccc1 | -11 | -0.2 | · | -7 | 0 | -0.5
CCC(Oc1ccccc1)C(=O)Nc1nnc(S(=O)(=O)N2CCCC2)s1 (configuration not stated) | 6 | -0.7&3.2 | 0.6%&0.7% | -7 | -4 | -2.0
O=C1C2CCCN2C(=S)N1Cc1ccccc1 (configuration not stated) | 7 | -0.3 | -0.2% | 9 | 1 | -0.6
COc1ccc(OCCCC(=O)Nc2nc(C)c(C(C)=O)s2)cc1 | 3 | 2.5 | 0.6% | 7 | 5 | -1.1
CCCn1c(N)c(C(=O)COC(=O)CCNS(=O)(=O)c2ccccc2F)c(=O)[nH]c1=O | -13 | 0.5 | -1.0% | -12 | 13 | -1.1
CCOC(=O)C1Cc2c([nH]c3ccccc23)C(C)N1 (configuration not stated) | -16 | 0.4 | 4.5%[38.3 µM] | -3 | 1 | -2.8
COC(=O)c1cc(NCc2ccc3c(c2)OCO3)ccc1N1CCOCC1 | -11 | 0.6 | 1.0%[38.3 µM] | -8 | 4 | -0.6
CCN(CC)S(=O)(=O)c1ccc(Cl)c(NC2=NCCCCC2)c1 | 0 | 0.6 | 0.0% | 5 | -5 | -0.6
CCOC(=O)[C@]12CCC=C1N(Cc1ccco1)C(=O)[C@H](CC(=O)N1CCSCC1)C2 | -24 | -0.7 | 0.5% | 13 | · | ·
NS(=O)(=O)c1ccc(CCNC(=O)CSc2nc3c(sc(=S)n3-c3ccccc3)c(=O)[nH]2)cc1 | -3 | -0.6 | 1.4% | -11 | -6 | -0.8

Filtered by structure: those above containing four or more nitrogen atoms (6)
SMILES | CtBP-E1A blk | TRPML1 ag | PINK1 modulator | Six1-Eya2 inh | D2 PAM | D2 ag
CCCc1nnc(NC(=O)CCC(=O)N2CCN(S(=O)(=O)c3ccc(C)cc3)CC2)s1 | 3 | -0.2 | 5.4% | -1 | -1 | -1.5
COc1ccc(NC(=O)CCNS(=O)(=O)c2ccc3c(c2)c(=O)n(C)c(=O)n3C)c(OC)c1 | -1 | 1.3 | 0.3% | -13 | -5 | -4.3
CC(=O)Nc1ccc(/C=N/NC(=O)CCN2CCN(c3ccccc3)CC2)cc1 | -12 | -0.4 | -0.4% | -17 | 3 | 9.3
CCC(Oc1ccccc1)C(=O)Nc1nnc(S(=O)(=O)N2CCCC2)s1 (configuration not stated) | 6 | -0.7&3.2 | 0.6%&0.7% | -7 | -4 | -2.0
CCCn1c(N)c(C(=O)COC(=O)CCNS(=O)(=O)c2ccccc2F)c(=O)[nH]c1=O | -13 | 0.5 | -1.0% | -12 | 13 | -1.1
NS(=O)(=O)c1ccc(CCNC(=O)CSc2nc3c(sc(=S)n3-c3ccccc3)c(=O)[nH]2)cc1 | -3 | -0.6 | 1.4% | -11 | -6 | -0.8

Additional records
SMILES | CtBP-E1A blk | TRPML1 ag | PINK1 modulator | Six1-Eya2 inh | D2 PAM | D2 ag
Cc1ccc(C)c(OCc2cc(C(=O)N3CCNC(=O)C3)no2)c1 | 4 | -0.8 | 1.7% | 3 | -5 | 0.6
Cc1ccc(Cl)cc1NC(=S)N(CCCN1CCN(C)CC1)Cc1ccco1 | -10 | 1.1 | -0.7% | -14 | -37 | -6.0
CCC(C)N(C)Cc1cccc(C2(O)CCN(S(=O)(=O)c3ccc(F)c(C)c3)CC2)c1 (configuration not stated) | -4 | 0.8 | 3.7% | 6 | -30 | -0.5
BrC(=C\c1ccccc1)/C=N/Nc1nc(N2CCOCC2)nc(N2CCOCC2)n1 | -12 | -0.6 | 0.8% | -4 | 4 | -3.1
COc1ccc(C(=O)N/C(=C\c2cn(S(=O)(=O)N(C)C)c3ccccc23)C(=O)NCCN2CCOCC2)cc1OC | 0 | 0.5 | 1.9% | 0 | -27 | -0.8
Cn1c(CC(=O)Nc2ccc(F)cc2)c(Sc2ccccc2)c2ccccc21 | 6 | 1.5 | 13% | -5 | -9 | -5.8
CC(C)(CN1CCN(C(c2ccccc2)c2ccccc2)CC1)NS(=O)(=O)c1ccccc1 | -10 | 2.6 | 0.5% | -15 | -8 | -3.7
NC(=S)Nc1ncc(CCN2CCOCC2)c(-c2ccc(F)cc2)n1 | 9 | -0.4 | 2.0% | -13 | 8 | 5.7
CNc1nc(Cl)c(SC)c(N2CCOCC2)n1 | -8 | -0.3 | 1.1% | -6 | -14 | 0.6
C=CCc1c(C)nc(SCc2nc3ccccc3c(=O)[nH]2)[nH]c1=O | -14 | 0.3 | 0.7% | -23 | -17 | -0.1
COc1cn(-c2ccccc2)nc1C(=O)Nc1ccccc1 | 0 | -0.5 | -0.3% | -21 | -7 | -3.2
COc1cc(C2CC(=O)Nc3c2c(=O)nc2c(C)cccn32)cc(OC)c1OC (configuration not stated) | 3 | 2.4&0.3 | -1.7%&1.2% | 1 | -2 | -3.3
Cc1cc2c(c(=O)o1)C(C13C=CC(CC1)C3)C(C#N)=C(N)O2 (configuration not stated) | -9 | 0.8 | -0.5% | -6 | -11 | -2.6
Cc1ccc(C(=O)Nc2nc(-c3ccc(F)cc3)cs2)o1 | -3 | 0.8 | 4.4% | -7 | -3 | 5.2
O=C(Nc1ccccn1)c1cccc(S(=O)(=O)N2CCc3ccccc3C2)c1 | -4 | 1.8 | 0.4% | -9 | -14 | -4.6
O=C(c1ccc(Br)s1)N1CCN(S(=O)(=O)c2ccccc2)CC1 | 8 | 0.0 | -0.3% | -1 | -10 | -1.9
CCC(C)(C)n1nnnc1C(c1ccc(OC)c(OC)c1)N1CCN(c2ccc(F)cc2)CC1 (configuration not stated) | -4 | -0.5 | 1.0% | -15 | -15 | -2.5
Cc1ccc(-c2nc(Nc3ccc(O)cc3)c3ccccc3n2)cc1 | -9 | 2.3 | 4.0% | -14 | -6 | 0.3
Cc1cc(SCC(=O)N/N=C/c2ccco2)nc2ccccc12 | -13 | 2.3 | -0.7% | -8 | 5 | 4.0
CCOC(=O)Cc1csc(NC(=O)CN2C(=O)c3ccccc3S2(=O)=O)n1 | 5 | -0.9 | -0.6% | -1 | 7 | -0.1
CC(C)CC(OC(=O)c1nsc(Cl)c1Cl)C(=O)NC1CCCC1 (configuration not stated) | 5 | -0.2 | 0.5% | 4 | -3 | -2.7
Cn1ccnc1SCc1cccc([N+](=O)[O-])c1 | -1 | 0.4 | -1.3% | -7 | -2 | 1.3
COc1ccc(NC(=O)c2cc(-c3ccc(C)o3)nc3ccccc23)cc1 | -6 | -0.5 | 9.4% | -1 | -4 | 0.4
CCOC(=O)C(C)Sc1nc2ccccc2c(=O)n1CC1CCCCC1 (configuration not stated) | 25 | 3.0 | 6.1%[38.3 µM] | 17 | -10 | -4.9
COc1ccc(/C=N/n2c(C)nnc2C)c(OC)c1OC | 1 | 0.0 | -0.5% | 4 | ? | -0.6
O=C(NCc1ccncc1)c1cccc(S(=O)(=O)NCc2ccccc2)c1 | 1 | -0.2 | -1.1% | 3 | -8 | 2.2
O=C(c1ccccc1)c1ccc(OCC(O)CNC2CCCc3ccccc32)cc1 (configuration not stated) | 0 | 2.1 | 14% | 0 | 17 | 1.3
CC(C)c1ccc(OCC(=O)Nc2ccncc2)cc1 | 0 | 0.9 | 3.5% | 6 | -2 | -3.1
CCOCC(=O)Nc1nc2ccc(OC)cc2s1 | -7 | -0.2 | 1.2% | -14 | -22 | -2.0
Cc1ccc(CC2CC(=O)N(CC(=O)O)C2=O)cc1 (configuration not stated) | 7 | -1.0 | -2.2% | 2 | -17 | -3.8
COc1ccccc1-c1noc(-c2ccco2)n1 | 2 | 1.0 | -1.1% | 8 | -5 | -0.5
Cc1cc(C)nc(/N=C2\NC(=O)CC(C(=O)O)N2c2ccc(Cl)cc2Cl)n1 (configuration not stated) | -11 | 0.9 | -1.5% | ? | -1 | -6.4
CCOC(=O)C1C(C)N=C2SCC(=O)N2C1c1cccc(Br)c1 (configuration not stated) | 6 | -0.6 | -1.0% | -9 | 13 | -4.7
O=C(NCc1ccco1)/C(=C\c1ccco1)NC(=O)c1ccco1 | 8 | 0.0 | 1.2% | 1 | -2 | -2.2
